VDR inh: Inhibitors of the vitamin D receptor (VDR): qHTS; AID 504847, 2011; hit rate 0.93% among 400,000; Potency, µM, for inactives: max response, negative = inhibition, most hits filed as inhibitors; Vitamin D3 receptor (Homo sapiens), P11473; VDR-SRC2-3 peptide fluorescence polarization, 2 h; active means well fitted inhibition curve with a large enough effect; inconclusive means small, poorly fitted or top-dose-only effect, or another doubt; inactive means no such curve, though single readings can be large or run the other way; further: series mostly up to about 120 µM
Target sequence (P11473 whole entry, looked up): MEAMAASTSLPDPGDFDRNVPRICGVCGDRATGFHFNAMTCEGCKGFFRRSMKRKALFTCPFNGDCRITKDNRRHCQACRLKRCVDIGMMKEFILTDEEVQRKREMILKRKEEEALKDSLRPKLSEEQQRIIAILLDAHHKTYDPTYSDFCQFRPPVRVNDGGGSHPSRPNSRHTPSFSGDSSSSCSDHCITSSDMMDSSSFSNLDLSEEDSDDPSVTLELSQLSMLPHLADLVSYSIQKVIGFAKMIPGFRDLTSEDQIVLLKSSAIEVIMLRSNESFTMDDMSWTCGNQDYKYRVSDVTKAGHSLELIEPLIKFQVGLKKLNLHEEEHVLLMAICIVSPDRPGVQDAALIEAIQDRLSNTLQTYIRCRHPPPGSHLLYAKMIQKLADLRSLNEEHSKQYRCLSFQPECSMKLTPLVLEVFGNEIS
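Measured by FP: displacement of SRC2-3 coactivator peptide from VDR by library compounds, following a two-hour ambient incubation.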
The depositor's hits bear a star; ? = inconclusive; & = joins results of further samples; [ ] = another dose, or the depositor's remark. On the % scale 0 is the no-effect control and ±100 the full control effect; potency means the concentration at half of the fitted maximal effect.

Structure,VDR inh
CN(C)C(=O)Nc1cccc(OC(=O)N(C)C)c1,-17%
CC(=NCCc1ccccc1)c1c(O)[nH]c(=O)[nH]c1=O,11%
COc1ccc(-c2nc3ccccc3c(=O)n2-c2ccc(OC)cc2)cc1,-9%
CC1CN=C(NCc2ccncc2)S1 (stereo not given),4%
COC(=O)[C@]12OC[C@]34C([C@@H](O)[C@@H]1O)[C@]1(C)CC(=O)C(O)=C(C)[C@@H]1C[C@H]3OC(=O)[C@H](O)[C@@H]24 (stereo not given in full),-17%
COc1ccc(N2C(=O)/C(=C/c3ccc(OC)c(OC)c3)C(=O)NC2=S)cc1,?
COc1ccc(OCC(=O)N2CCN(Cc3nc4cc([N+](=O)[O-])ccc4n3C)CC2)cc1,-17%
COc1ccccc1Sc1ccccc1CC(C)N (stereo not given),17%
O=S(=O)(c1ccc(Cl)cc1)N1CN2CCN(C2)C1,9%
COc1ccc(C(=O)O/N=C(/C(N)=O)P(=O)(OC(C)C)OC(C)C)cc1,-12%
COc1cccc(C(=O)C2CCCN(Cc3cnn(C(C)C)c3)C2)c1 (stereo not given),6%
O=c1[nH]c(=O)n(CCc2ccccc2)c(O)c1C=NCCCn1ccnc1,3%
O=C1NC(=O)N(c2ccccc2)C(=O)/C1=C/c1ccc([N+](=O)[O-])s1,50µM*
O=C(COc1ccc(Br)cc1)Nc1ccc(Cl)cc1C(=O)c1ccccc1,-4%
O=C(CCC(=O)N1C[C@H]2C[C@@H](C1)c1cccc(=O)n1C2)NCc1cccc(C(F)(F)F)c1,-3%
CCCOc1ccc(C(C)=O)cc1Cc1c(O)[nH]c(=S)[nH]c1=O,?
O=C(COc1ccccc1)N1CCN(C/C=C/c2ccccc2)CC1,8%
CCC(=NCCC1=CCCCC1)c1c(O)[nH]c(=O)[nH]c1=O,-2%
CNC(=O)CSP(=S)(OC)OC,?
CCOC(=O)c1cc(CC)sc1/N=C/c1c(O)[nH]c(=S)[nH]c1=O,?
COc1ccc(N=Cc2c(O)n(-c3ccc(C)cc3)c(=O)[nH]c2=O)cc1,-3%
CCN(CC)CCCOC(=O)C(OC(C)C)(c1ccccc1)c1ccccc1,4%
COc1ccc(C(=O)Cn2c(NCCCl)nc3ccccc32)cc1,-16%
O=CNc1ccc(OP(=O)(Oc2ccccc2)Oc2ccccc2)cc1,-4%
Cc1ccc(Cn2cccc(C(=O)Nc3cc([N+](=O)[O-])ccc3C)c2=O)cc1,18%
c1ccc(CNC2CCCCCCC2)cc1 (tested in a mixture with another compound),-18%
CCN1C[C@]2(C)CC[C@H](OC)[C@@]34[C@@H]2[C@H](OC(C)=O)[C@]2(OCO[C@@]25C[C@@H](OC)[C@@H]2C[C@@]3(O)[C@H]5[C@@H]2OC)[C@H]14,-6%
CCOC(=O)c1c(NC(=O)c2c(N)n(CCCOC)c3nc4ccccc4nc23)sc2c1CCCC2,-1%
CCOP(=O)(Nc1ccc2c(c1)C(=NNC(N)=S)c1ccccc1-2)OCC,?
COC(=O)c1ccccc1OP1(=O)COc2ccccc2OC1,13%
CCOC(=O)c1c(-c2ccccc2)oc2ccc(OC(=O)N(C)C)cc12,7%
CNC[C@H](O)c1ccc(O)cc1,0%
CCOC(=O)C1C(=O)NC23CCCC2C1c1ccccc1O3 (stereo not given),-5%
CCN(CC)CCN/N=C(\C)c1c(O)[nH]c(=O)[nH]c1=O,-2%
COCCNC(=O)N1[C@H]2CC[C@@H]1C(C(=O)OC)=C(c1ccc(OC(F)(F)F)cc1)C2,14%
CCOc1ccc(-c2cc(C)[n+](CCO)c(-c3ccc(OCC)cc3)c2)cc1,4%
COc1ccc(CN(CCc2c[nH]c3ccccc23)Cc2ccc(OC)cc2)cc1,2%
C=CCn1c(=O)c(C=Nc2c(OC)cccc2[N+](=O)[O-])c(O)n(CCCC)c1=O,-12%
COC(=O)C(O)(c1ccc(N(C)C(=O)c2ccc(Cl)c(Cl)c2)cc1)C(F)(F)F (stereo not given),3%
O=C(Nc1ccc(Br)cc1)c1nn(C23CC4CC(CC(C4)C2)C3)cc1Br,-8%
CC12C=CC(=O)C=C1CCC1C2=CCC2(C)C1CC[C@@H]2C(=O)CN1CCN(c2cc(N3CCCC3)nc(N3CCCC3)n2)CC1 (stereo not given in full),3.2µM*
O=C(c1ccc(Cl)cc1)C1CCCN(Cc2ccon2)C1 (stereo not given),-10%
Cc1ccc(C2C(=O)NC(=O)NC2=O)cc1,17%
Cn1cnnc1Sc1cc(N2CCNCC2)ccc1[N+](=O)[O-],-4%
COc1cc([C@@H]2c3cc4c(cc3C[C@H]3COC(=O)[C@@H]32)OCO4)cc(OC)c1O,-12%
O=C(Nc1ccccc1)N1CC2(CCN(C(=O)Oc3ccccc3)CC2)C1,5%
CC(C)C1C(=O)O[C@@H]2CCN3CC=C(COC(=O)[C@](C)(O)[C@]1(C)O)[C@H]23 (stereo not given in full),13%
Cc1nnc(NC(=O)c2cccn(Cc3ccccc3)c2=O)s1,15%
CC1O[C@@H](O[C@@H]2C(O)C[C@H](O[C@@H]3C(O)C[C@@H](OC4CC[C@@]5(C)C6CC[C@]7(C)C(C8=CC(=O)OC8)CC[C@@]7(O)C6CC[C@@H]5C4)OC3C)OC2C)CC(O)[C@H]1O (stereo not given in full),1%
CCOP(=O)(OCC)C(Nc1cc(Cl)cc(Cl)c1)c1cccc(O)c1 (stereo not given),111%[activator]

Quoted at random: five records from the list
Structure,VDR inh
Cc1nnc(NC(=O)c2cccn(Cc3ccccc3)c2=O)s1,15%
CCOc1ccc(-c2cc(C)[n+](CCO)c(-c3ccc(OCC)cc3)c2)cc1,4%
COc1cc([C@@H]2c3cc4c(cc3C[C@H]3COC(=O)[C@@H]32)OCO4)cc(OC)c1O,-12%
C=CCn1c(=O)c(C=Nc2c(OC)cccc2[N+](=O)[O-])c(O)n(CCCC)c1=O,-12%
O=C(c1ccc(Cl)cc1)C1CCCN(Cc2ccon2)C1 (stereo not given),-10%

Next results
Structure,VDR inh
Cn1ccc(NC(=O)CCl)n1,19%
CN1CCN(c2ccc(Cl)cc2N)CC1,-19%
Cc1nn(Cc2ccccc2)c(C)c1C(=O)O,11%
CSc1nc(N2CCN(C)CC2)c2ccccc2n1,-3%
CN1CCN(c2ncc(C=O)s2)CC1,16%
Cc1ccc(-c2nc3ccccc3c(=O)n2-c2ccncc2)cc1,-24%
CCC(C)NC(=O)c1c(N)n(CC2CCCO2)c2nc3ccccc3nc12 (stereo not given),-10%
CC(=O)NC1CC2CCC(C1)N2 (stereo not given),-11%
CCOC(=O)C1(CCc2ccccc2)CCN(Cc2ccc(NC(C)=O)cc2)CC1,-10%
Cn1cccc1/C=C1/C(=O)NC(=S)N(Cc2ccc(F)cc2)C1=O,?
Cc1cc(OC(=O)c2ccco2)c2c3c(c(=O)oc2c1)CCC3,12%
CC(C)c1oc(=O)cc2c1[C@@H](O)[C@H]1OC(=O)[C@@]3(C)C[C@@H](O)[C@@H](O)[C@@]2(C)C13 (stereo not given in full),22%
CCC12CN3CC(CC)(CN(C1)C3c1ccccn1)C2=O (stereo not given),12%
CC1CCCC(NC(=O)CNC(=S)N2CC3CC(C2)c2cccc(=O)n2C3)C1C (stereo not given),0%
Cc1ccc2c(c1)C(c1ccccc1)=NCC(=O)N2C,2%
Cc1nccn1Cc1ccc(Cl)nc1,-30%
O=C(CN1C2CCC1CC(O)(c1cccnc1)C2)Nc1ccc2c(c1)OCO2 (stereo not given),-9%
CC(=Nc1ccccc1N)c1c(O)n(C)c(=O)[nH]c1=O,-7%
Cc1ccc(C(=O)c2cc(Br)ccc2N)cc1,-17%
CCCCN1C(=O)C(C2c3ccccc3C(=O)N2Cc2ccccc2)C(=O)NC1=S (stereo not given),5%
CCS(=O)(=O)NC(C)c1nnc2n1-c1ccc(Br)cc1C(c1ccccc1Cl)=NC2 (stereo not given),-2%
CCOP(=O)(OCC)C(NC(=O)c1ccc(Cl)cc1)=C(Cl)Cl,-4%
C/C(=N\N1CCCCCC1)c1c(O)n(C2CCCCC2)c(=O)[nH]c1=O,11%
CC(=O)c1ccc(NC(=O)c2sc3nc4c(cc3c2N)N2CCC4CC2)cc1,-6%
N#Cc1ccccc1OCC(=O)N1CCN(CC(=O)Nc2ccc(F)cc2)CC1,-3%
O=C(CN1CCN(CCO)CC1)Nc1ccc(Cl)cc1C(=O)c1ccccc1,-12%
CC1(CCl)CN1S(=O)(=O)c1ccccc1 (stereo not given),-2%
CCN1C[C@]2(CO)CC[C@H](OC)[C@@]34C5C[C@H]6[C@H](OC)C5[C@](O)(C[C@H]6OC)[C@@H](C(OC)C23)[C@@H]14 (stereo not given in full),-23%
CCn1c(O)c(/C=N/NC(=O)c2ccncc2)c(=O)[nH]c1=S,4%
O=C(c1ccncc1)N1CCC[C@@]2(CCN(Cc3nccs3)C2)C1,1%
CCCc1cc(=O)oc2c3c(cc(OCC(=O)N[C@@H](C)C(=O)O)c12)OC(C)(C)CC3,?
C=C1C(=O)O[C@@H]2C[C@@H](C)[C@@H]3C=CC(=O)[C@@]3(C)[C@@H](OC(=O)CC(=O)O[C@H]3[C@@H]4C(=C)C(=O)O[C@@H]4C[C@@H](C)[C@@H]4C=CC(=O)[C@]43C)[C@H]12,18µM*
Cc1ccc(CCN2CC(C(=O)N3CCC4(CC3)OCCO4)CC2=O)cc1 (stereo not given),3%
O=C(CN1CC=C(c2ccccc2)CC1)Nc1c(Cl)cccc1Cl,-4%
O=C1NC(=O)C2(Cc3c(nc4ccccn4c3=O)N3CCCCCC32)C(=O)N1Cc1ccccc1 (stereo not given),-18%
c1ccc(Nc2ccc(Nc3ccccc3)cc2)cc1,-17%
COc1ccc(C2=NCC(=S)Nc3ccc(Cl)cc32)cc1OC,-23%
CNC(=O)Oc1cccc2c1OC(C)(C)O2,-1%&12%
ClC(Cl)=C(c1ccc(Cl)cc1)c1ccc(Cl)cc1,-4%&0%
COc1ccccc1C1=NCc2nnc(CSC)n2-c2ccc(Cl)cc21,9%
CC1=C(N2CC2)C(=O)C(CO)=C(N2CC2)C1=O,-5%
CCCCc1nc2ccccc2c(=O)n1-c1ccccc1[N+](=O)[O-],-5%
C=Cn1c(P(=S)(N2CCOCC2)N2CCOCC2)cc2c1CCCC2,-9%
CCOc1ccc(-c2c(C)n(-c3ccc(OCC)cc3)c3[n+]2CCCCC3)cc1,-4%
COc1cc(Cn2c(N)c(C(=O)NCc3ccco3)c3nc4ccccc4nc32)cc(OC)c1OC,79µM*
CCOC(=O)/C(CCCN(CC)CC)=N\O,18%
COc1ccc(CCNC(=O)c2c(N)n(CCN3CCOCC3)c3nc4ccccc4nc23)cc1OC,-4%
CCCCc1ccc(NC(=O)c2cccn(Cc3ccc(Cl)cc3)c2=O)cc1,-9%
COP(=S)(OC)Oc1ccc(SC)c(C)c1,-9%&0%&-28%
COc1cccc(C2(O)CCN(CC(=O)Nc3nc(C)cs3)CC2)c1,-8%

Next section.
Structure,VDR inh
Cc1cccc2c3c(ccc12)C1=C(C(=O)C3=O)[C@@H](C)CO1,20µM*
O=C(Nc1ccc(OC(=O)N2CCCC2)cc1)N1CCOCC1,-10%
CC(C)c1cccc(C(C)C)c1O,-7%&9%&-16%&22%
Cc1ccsc1-c1nc(CSCC(=O)N2CCC3(CC2)OCCO3)c(C)o1,24%
CCN(CC)c1ccc(/C=C2\C(=O)NC(=S)N(c3ccc(OC)cc3OC)C2=O)o1,8%
CN1CC[C@]23c4c5ccc(O)c4OC2[C@H](O)C=CC3[C@H]1C5 (stereo not given in full),-14%
COc1ccccc1CN1CCN(C(=O)COc2cccc(C)c2)CC1,-2%&14%
COc1ccc(N2C(=O)NC(=O)C(CCc3ccncc3)(CCc3ccncc3)C2=O)cc1,-10%
COc1ccc([N+](=O)[O-])cc1N=Cc1c(O)n(CCc2ccccc2)c(=O)n(C(C)C)c1=O,4%
C/C(=N\N=C(N)N)c1ccccc1,3%
CCCCC(CC)COC(=O)c1ccccc1C(=O)OCC(CC)CCCC (stereo not given),-13%
O=C(Nc1ccc2ccccc2c1)c1nn(C23CC4CC(CC(C4)C2)C3)cc1Br,12%
c1ccc2c(c1)[IH]c1ccccc1-2,13%
COc1ccc(NC(=O)c2cn(CCC#N)nc2-c2ccc(OC)c(OC)c2)cc1,-9%
C[n+]1c(-c2ccccc2)cc(-c2ccc(Cl)cc2)cc1-c1ccccc1,12%
O=C1CC(=O)N(c2cccc(Cl)c2)C(=O)N1,-26%
CCCCCCC(=O)N/N=C/c1c(O)n(CCCC)c(=S)[nH]c1=O,2%
Cc1cccc(-n2c(O)c(C)c(=O)[nH]c2=S)c1,-26%
COc1cccc(NC(=O)CN2CC(c3ccccc3)CC2=O)c1 (stereo not given),-19%
COC(=O)C1=C(c2ccc(F)cc2OCc2ccccc2)C[C@@H]2CC[C@H]1N2C(=O)NCc1ccccc1Cl,-18%
CC(=NCC1CCCO1)c1c(O)n(-c2ccccc2)c(=O)[nH]c1=O (stereo not given),-6%

Screening data (PubChem)

This is a subset; the hit share may differ from the screen's.
